Env fusion inh: blocks HIV Env-driven cell-cell fusion | inhibition, % at 12.3 µM | AID 651610 | HeLa-JRFL Env/CEM21 cell fusion, luciferase | 360,000 compounds, 1.1% hits;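 active = mean replicate inhibition score of at least 50 and every replicate individually at or above 50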;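 also: 0% = plate neutral controls and 100% = maraviroc near 300 nM; one replicate is shown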
Yeast UUG start: modulators of start codon recognition fidelity in yeast; S. cerevisiae UUG-firefly luciferase reporter, luminescence/redox ratio; activity score, % at 18.7 µM; 350,000 compounds, 0.13% hits; AID 602363;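 active = replicate mean at a twofold rise or more, about +100% in these data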;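 also: firefly luciferase made from a UUG start codon reports start codon fidelity; reporter light over untreated wells divided by growth signal over untreated wells; some hits fall short of that in this replicate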
* = called active by the depositor; [ ] = dose if it differs, or a comment. The list is partial. The share of hits here may be higher or lower than overall.

Yeast UUG start	Env fusion inh	molecule
23.7	-10.4[16.7 µM]	COc1ccc(CN(C)C[C@@H]2OCCCC[C@@H](C)Oc3ccc(NC(=O)c4ccccc4)cc3C(=O)N([C@H](C)CO)C[C@H]2C)cc1
-3.5	-8.3[16.7 µM]	COc1ccc(-c2ccc3c(c2)O[C@@H](CN(C)C(=O)Nc2ccccc2F)[C@H](C)CN([C@H](C)CO)S3(=O)=O)cc1
-12.9	-0.2[16.7 µM]	C[C@H](NC(=O)C[C@H]1CC[C@H](NC(=O)Cc2ccccn2)[C@@H](CO)O1)c1ccccc1
-3.4	18.6[16.7 µM]	COc1ccc(NC(=O)Nc2ccc3c(c2)CC(=O)N([C@@H](C)CO)C[C@H](C)[C@@H](CN(C)C(=O)NC2CCCCC2)O3)cc1
2.1	-2.2[16.7 µM]	CC(C)NC(=O)N[C@@H]1CC[C@@H](CC(=O)NCCCN(C)C)O[C@@H]1CO
0.6	6.5[16.7 µM]	COc1ccc(NC(=O)Nc2ccc3c(c2)C(=O)N([C@@H](C)CO)C[C@H](C)[C@H](CN(C)C(=O)Nc2cccc4ccccc24)O3)cc1
0.6	-13.4[16.7 µM]	C[C@H]1CN([C@@H](C)CO)C(=O)c2cc(NC(=O)CCN3CCOCC3)ccc2O[C@H]1CN(C)Cc1ccccc1
-11.4	0.0[16.7 µM]	CC(C)NC(=O)N[C@H]1CC[C@@H](CCNC(=O)C2CCC2)O[C@@H]1CO
7.6	-21.0[16.7 µM]	Cc1ccc(S(=O)(=O)Nc2cccc3c2O[C@@H](CN(C)S(=O)(=O)c2ccccc2)[C@@H](C)CN([C@H](C)CO)C3=O)cc1
31.0	-13.3[16.7 µM]	COc1ccccc1C#Cc1ccc2c(c1)O[C@H](CN(C)C(C)=O)[C@H](C)CN([C@H](C)CO)S2(=O)=O
-11.5	0.5[16.7 µM]	C[C@H]1CN([C@@H](C)CO)C(=O)c2cc(NC(=O)CCC(F)(F)F)ccc2O[C@H]1CN(C)S(C)(=O)=O
7.3	29.0[16.7 µM]	COc1ccccc1-c1ccc2c(c1)O[C@@H](CN(C)Cc1ccc3c(c1)OCO3)[C@@H](C)CN([C@H](C)CO)S2(=O)=O
-9.7	2.8[16.7 µM]	C[C@@H]1CCCCO[C@H](CN(C)C(=O)Nc2cccc3ccccc23)[C@H](C)CN([C@@H](C)CO)C(=O)c2cc(NS(=O)(=O)c3ccc(F)cc3)ccc2O1
-3.5	3.2[16.7 µM]	C[C@@H]1CN([C@@H](C)CO)C(=O)Cc2cc(NS(C)(=O)=O)ccc2O[C@@H]1CN(C)Cc1ccccc1
-6.1	7.7[16.7 µM]	Cc1noc(C)c1NC(=O)Nc1ccc2c(c1)C(=O)N([C@H](C)CO)C[C@H](C)[C@@H](CN(C)C(=O)NC1CCCCC1)OCCCC[C@@H](C)O2
11.0	13.8[16.7 µM]	CC(C)CC#Cc1ccc2c(c1)O[C@H](CN(C)Cc1ccccc1)[C@@H](C)CN([C@H](C)CO)S2(=O)=O
56.3	-17.5[16.7 µM]	COCC#Cc1cnc2c(c1)C(=O)N([C@@H](C)CO)C[C@@H](C)[C@@H](CN(C)C(=O)NC1CCCC1)O2
3.6	2.1[16.7 µM]	C[C@H]1CN([C@@H](C)CO)C(=O)c2cc(C3=CCCC3)cnc2O[C@@H]1CN(C)C(=O)CN(C)C
2.7	-6.7[16.7 µM]	CCC(=O)N[C@@H]1CC[C@@H](CC(=O)NCc2ccc(OC)cc2)O[C@H]1CO
-14.1	1.9[16.7 µM]	C[C@@H]1CN([C@H](C)CO)C(=O)c2cc(NC(=O)Nc3ccc4c(c3)OCO4)ccc2O[C@@H](C)CCCCO[C@H]1CN(C)S(=O)(=O)c1ccccc1

Later entries:
Yeast UUG start	Env fusion inh	molecule
-0.8	3.8[16.7 µM]	COC(=O)C[C@H]1CC[C@H]2[C@@H](COc3ccc(NS(=O)(=O)c4cccc(F)c4)cc3C(=O)N2C)O1
5.8	-88.4[16.7 µM]	N#C[C@@H]1N[C@@H](CO)[C@H]1c1ccc(-c2ccccc2F)cc1
-9.6	1.9[16.7 µM]	Cc1noc(C)c1NC(=O)N(C)C[C@@H]1Oc2ccc(NC(=O)C3CCCCC3)cc2CC(=O)N([C@@H](C)CO)C[C@@H]1C
-6.9	6.7[16.7 µM]	CN1C(=O)c2cc(NS(=O)(=O)c3ccc(F)cc3)ccc2OC[C@H]2O[C@H](CC(=O)O)CC[C@H]21
-7.2	-2.7[16.7 µM]	C[C@@H]1CN([C@@H](C)CO)C(=O)c2cccc(NC(=O)c3cnccn3)c2O[C@@H]1CN(C)CC1CC1
-4.2	7.1[16.7 µM]	C/C=C/c1ccc2c(c1)O[C@@H](CN(C)C(=O)c1ccccn1)[C@@H](C)CN([C@H](C)CO)S2(=O)=O
25.6	-29.4[16.7 µM]	C[C@H]1CCCCO[C@H](CN(C)S(=O)(=O)c2ccccc2)[C@@H](C)CN([C@@H](C)CO)C(=O)c2cc(NS(=O)(=O)c3ccccc3)ccc2O1
-6.5	6.3[16.7 µM]	O=C(Nc1ccc2c(c1)OCO2)N[C@H]1CC[C@@H](CCNC(=O)C2CC2)O[C@@H]1CO
4.8	-43.4[16.7 µM]	COc1ccc(S(=O)(=O)N(C)C[C@@H]2OCCCC[C@H](C)Oc3ccc(NS(=O)(=O)c4ccccc4)cc3C(=O)N([C@@H](C)CO)C[C@H]2C)cc1
22.0	-3.0[16.7 µM]	CC(=O)N(C)C[C@H]1Oc2cc(C#CC3CC3)ccc2S(=O)(=O)N([C@H](C)CO)C[C@@H]1C
4.1	-18.0[16.7 µM]	C[C@H]1CN([C@@H](C)CO)S(=O)(=O)c2ccc(-c3ccncc3)cc2O[C@@H]1CN(C)C(=O)c1ccc2c(c1)OCO2
-13.1	12.8[16.7 µM]	C[C@@H]1CN([C@@H](C)CO)S(=O)(=O)c2ccc(C3=CCCC3)cc2O[C@H]1CN(C)C(=O)C1CCC1
1.9	-1.8[16.7 µM]	COc1ccc(NC(=O)Nc2ccc3c(c2)CC(=O)N([C@H](C)CO)C[C@H](C)[C@@H](CN(C)C(=O)Nc2c(C)noc2C)O3)cc1
13.0	12.3[16.7 µM]	C[C@@H]1CCCCO[C@@H](CN(C)C(=O)Cc2ccccc2)[C@@H](C)CN([C@@H](C)CO)C(=O)c2cc(NC(=O)Nc3ccc4c(c3)OCO4)ccc2O1
5.7	-10.2[16.7 µM]	C[C@@H]1CN([C@@H](C)CO)C(=O)c2cc(NS(=O)(=O)c3ccccc3)ccc2O[C@H]1CN(C)C(=O)Nc1ccc2c(c1)OCO2
-14.8	-12.9[16.7 µM]	C[C@@H]1CN([C@@H](C)CO)C(=O)c2cc(C#CCN(C)C)cnc2O[C@H]1CN(C)Cc1ccncc1
1.6	21.5[16.7 µM]	C[C@H](CO)N1C[C@H](C)[C@@H](CN(C)C(=O)Nc2cccc3ccccc23)Oc2ccc(NC(=O)Nc3cccc4ccccc34)cc2C1=O
-13.8	-5.8[16.7 µM]	COc1ccccc1CN(C)C[C@H]1OCc2cnnn2CCCC(=O)N([C@@H](C)CO)C[C@H]1C
2.4	-51.9[16.7 µM]	Cc1ccc(S(=O)(=O)NCC[C@H]2CC[C@@H](NC(=O)Nc3cccc(F)c3)[C@H](CO)O2)cc1
9.6	-11.3[16.7 µM]	C[C@H]1CN([C@@H](C)CO)C(=O)Cc2cc(NC(=O)c3ccncc3)ccc2O[C@H]1CN(C)Cc1ccncc1

Next part:
Yeast UUG start	Env fusion inh	molecule
7.4	-8.4[16.7 µM]	CNC[C@H]1OCCCC[C@@H](C)Oc2ccc(NC(=O)C3CCCCC3)cc2C(=O)N([C@H](C)CO)C[C@H]1C
12.1	63.4*[16.7 µM]	CNC[C@H]1Oc2c(NC(=O)Nc3ccc(C(F)(F)F)cc3)cccc2C(=O)N([C@@H](C)CO)C[C@H]1C
4.8	-3.5[16.7 µM]	C[C@@H]1CN([C@@H](C)CO)C(=O)c2cc(NC(=O)c3ccncc3)ccc2O[C@@H]1CN(C)Cc1ccc(Oc2ccccc2)cc1
-4.6	11.2[16.7 µM]	Cc1ccc(S(=O)(=O)N[C@@H]2CC[C@@H](CCn3cc(C4CC4)nn3)O[C@H]2CO)cc1
25.9	0.7[16.7 µM]	C[C@@H]1CCCCO[C@@H](CN(C)C(=O)c2ccccc2)[C@H](C)CN([C@H](C)CO)C(=O)c2cc(NC(=O)CCC(F)(F)F)ccc2O1
-6.6	-4.1[16.7 µM]	Cc1ccc(S(=O)(=O)Nc2ccc3c(c2)C(=O)N([C@H](C)CO)C[C@@H](C)[C@@H](CN(C)Cc2ccncc2)OCCCC[C@@H](C)O3)cc1
-8.7	2.2[16.7 µM]	CC(C)NC(=O)Nc1ccc2c(c1)C(=O)N([C@@H](C)CO)C[C@@H](C)[C@@H](CN(C)Cc1ccccc1)O2
-9.3	-45.4[16.7 µM]	C[C@H](CO)N1C[C@H](C)[C@@H](CN(C)S(=O)(=O)c2cccs2)OCCCC[C@H](C)Oc2ccc(NC(=O)C3CCCCC3)cc2C1=O
9.1	-2.6[16.7 µM]	Cc1noc(C)c1NC(=O)Nc1ccc2c(c1)C(=O)N([C@@H](C)CO)C[C@H](C)[C@@H](CN(C)Cc1ccc3c(c1)OCO3)OCCCC[C@H](C)O2
-8.3	13.9[16.7 µM]	C[C@H](O)C#Cc1ccc2c(c1)O[C@@H](CN(C)Cc1cncnc1)[C@@H](C)CN([C@H](C)CO)S2(=O)=O
1.6	3.9[16.7 µM]	O=C(Nc1ccccc1F)N[C@@H]1CC[C@H](CCNS(=O)(=O)c2ccccc2)O[C@@H]1CO
-0.8	0.0[16.7 µM]	Cc1ccccc1-c1cnc2c(c1)C(=O)N([C@@H](C)CO)C[C@H](C)[C@H](CN(C)C(=O)c1ccncc1)O2
-12.4	-46.6[16.7 µM]	COc1ccccc1S(=O)(=O)N[C@@H]1CC[C@@H](CCNC(=O)C2CCCC2)O[C@H]1CO
23.4	-2.5[16.7 µM]	C[C@H]1CN([C@@H](C)CO)S(=O)(=O)c2ccc(-c3ccc(C(=O)N(C)C)cc3)cc2O[C@@H]1CN(C)C(=O)C1CCOCC1
-4.0	74.3*[16.7 µM]	C[C@H](CO)N1C[C@H](C)[C@H](CN(C)S(=O)(=O)c2ccc(C#N)cc2)Oc2ncc(/C=C/c3ccccc3)cc2C1=O
-9.6	1.0[16.7 µM]	C[C@@H]1CN([C@H](C)CO)C(=O)c2cc(C#Cc3cccc(F)c3)cnc2O[C@@H]1CN(C)C(=O)C1CCOCC1
15.6	4.7[16.7 µM]	C[C@@H]1CN([C@H](C)CO)C(=O)Cc2cc(NC(=O)Cc3ccccc3)ccc2O[C@H]1CN(C)CC1CCCCC1
8.0	-41.4[16.7 µM]	Cc1noc(C)c1NC(=O)Nc1ccc2c(c1)C(=O)N([C@@H](C)CO)C[C@@H](C)[C@@H](CN(C)Cc1ccc(Cl)c(Cl)c1)OCCCC[C@@H](C)O2
-13.2	15.6[16.7 µM]	CC(C)Cc1ccc(CN2CC[C@@H](NC(=O)c3ccccc3)C2)cc1
0.6	6.2[16.7 µM]	O=C(C[C@@H]1C[C@H]2c3cc(NS(=O)(=O)c4ccc(F)cc4)ccc3O[C@H]2[C@@H](CO)O1)NC1CCCC1

Reprinted at random: five records from the list
Yeast UUG start	Env fusion inh	molecule
-8.3	13.9[16.7 µM]	C[C@H](O)C#Cc1ccc2c(c1)O[C@@H](CN(C)Cc1cncnc1)[C@@H](C)CN([C@H](C)CO)S2(=O)=O
-12.4	-46.6[16.7 µM]	COc1ccccc1S(=O)(=O)N[C@@H]1CC[C@@H](CCNC(=O)C2CCCC2)O[C@H]1CO
-9.3	-45.4[16.7 µM]	C[C@H](CO)N1C[C@H](C)[C@@H](CN(C)S(=O)(=O)c2cccs2)OCCCC[C@H](C)Oc2ccc(NC(=O)C3CCCCC3)cc2C1=O
7.4	-8.4[16.7 µM]	CNC[C@H]1OCCCC[C@@H](C)Oc2ccc(NC(=O)C3CCCCC3)cc2C(=O)N([C@H](C)CO)C[C@H]1C
25.9	0.7[16.7 µM]	C[C@@H]1CCCCO[C@@H](CN(C)C(=O)c2ccccc2)[C@H](C)CN([C@H](C)CO)C(=O)c2cc(NC(=O)CCC(F)(F)F)ccc2O1

Next section:
Yeast UUG start	Env fusion inh	molecule
0.2	-32.7[16.7 µM]	C[C@@H]1CN([C@@H](C)CO)C(=O)c2cc(NC(=O)NC3CCCCC3)ccc2O[C@@H](C)CCCCO[C@@H]1CN(C)Cc1ccc(C(F)(F)F)cc1
-12.4	7.6[16.7 µM]	CN1CCN(C(=O)C[C@@H]2CC[C@@H](NS(=O)(=O)c3cccc(F)c3)[C@@H](CO)O2)CC1
-15.8	3.2[16.7 µM]	C[C@H]1CN([C@@H](C)CO)S(=O)(=O)c2ccc(-c3cccnc3)cc2O[C@@H]1CN(C)Cc1cncnc1
7.9	7.8[16.7 µM]	CC(C)c1cn(CC[C@H]2CC[C@@H](NC(=O)C3CCCC3)[C@H](CO)O2)nn1
6.9	53.3[16.7 µM]	C[C@H](CO)N1C[C@H](C)[C@H](CN(C)S(=O)(=O)c2ccccc2)Oc2ccc(NC(=O)Nc3ccc(F)cc3)cc2CC1=O
19.2	-30.2[16.7 µM]	COc1ccc(NC(=O)N(C)C[C@H]2Oc3c(NS(=O)(=O)c4ccc(OC)cc4)cccc3C(=O)N([C@@H](C)CO)C[C@H]2C)cc1
-13.9	-2.7[16.7 µM]	COCC(=O)Nc1ccc2c(c1)[C@@H]1C[C@@H](CC(=O)NC3CCCC3)O[C@@H](CO)[C@@H]1O2
9.9	-0.3[16.7 µM]	O=C(Nc1cc(F)ccc1F)N[C@H]1C=C[C@H](CC(=O)N2CCc3ccccc3C2)O[C@@H]1CO
-0.6	-2.2[16.7 µM]	C[C@@H]1CN([C@H](C)CO)C(=O)c2cc(NS(=O)(=O)c3cn(C)cn3)ccc2O[C@@H](C)CCCCO[C@H]1CN(C)Cc1ccc2c(c1)OCO2

Assay outcomes as filed in PubChem.
